Compound activity from PubChem.
VDR inhibitor = blocks the human vitamin D receptor | P11473 | VDR-SRC2-3 peptide fluorescence polarization, 2 h | Potency, µM, for inactives: max response, negative = inhibition, usual class: inhibitors | 400,000 compounds, 0.93% hits; active = well fitted inhibition curve with a large enough effect; inconclusive = small, poorly fitted or top-dose-only effect, or another doubt; inactive = no such curve, though single readings can be large or run the other way; note: series mostly up to about 120 µM
Target sequence (P11473 whole entry, looked up): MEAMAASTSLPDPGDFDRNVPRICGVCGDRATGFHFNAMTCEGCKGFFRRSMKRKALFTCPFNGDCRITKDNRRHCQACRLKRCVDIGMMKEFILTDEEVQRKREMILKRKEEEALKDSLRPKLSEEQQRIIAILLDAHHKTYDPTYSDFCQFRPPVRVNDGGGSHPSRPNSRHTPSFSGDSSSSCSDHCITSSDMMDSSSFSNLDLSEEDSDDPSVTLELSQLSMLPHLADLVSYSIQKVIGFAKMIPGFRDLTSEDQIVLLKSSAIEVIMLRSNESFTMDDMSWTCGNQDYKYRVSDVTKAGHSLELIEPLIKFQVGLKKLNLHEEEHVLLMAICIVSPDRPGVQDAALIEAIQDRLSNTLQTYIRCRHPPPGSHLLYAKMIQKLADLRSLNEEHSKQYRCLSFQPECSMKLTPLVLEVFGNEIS
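Measured by FP: displacement of SRC2-3 coactivator peptide from VDR by library compounds, following a two-hour ambient incubation.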
The depositor's hits bear a star; ? = inconclusive; & = joins results of further samples. % is set by controls: 0 for no effect and ±100 for the full control effect; potency is the fitted concentration of half-maximal effect. An excerpt; count on the stated rates, not on these rows.

SMILES	VDR inhibitor
COc1cc(O)c(C(CCN2CCOCC2)c2cc(OC)c(OC)c(OC)c2)c(OC)c1 (configuration not stated)	-3.2%&6.0%
O=C(NCc1ccccn1)C1CCN(S(=O)(=O)c2ccccc2)CC1	14.4%
COc1ccc(CCNC(=O)CCc2cn(Cc3ccc(C)cc3)c3ccccc23)cc1OC	1.6%
COc1ccc(CNC(=O)COC(=O)c2c[nH]c(=O)[nH]c2=O)cc1OC	-5.1%
CCn1cc(C(=O)NCc2ccco2)c(=O)c2cc(S(=O)(=O)N3CCC(C)CC3)ccc21	-5.9%
O=C(CC1SC(=Nc2ccc(OC(F)F)cc2)N(CCN2CCOCC2)C1=O)Nc1ccc(F)cc1F (configuration not stated)	12.3%
O=S(=O)(Nc1ccc(F)cc1)c1ccc(S(=O)(=O)N2CCOCC2)cc1	-6.8%
CS(=O)(=O)N1CCC(C(=O)N2CCN(c3ccccc3)CC2)CC1	7.7%
COCCCNC(=O)c1cc(S(=O)(=O)NCCCN2CCCC2=O)ccc1Cl	-3.6%
CC(C)(C)OC(=O)N(Cc1ccccc1)Cc1ccccc1OCc1cccc(NC(=O)C2CCC2)c1	-5.9%
Cc1cc(C)nc(N2CCC(C(=O)NCCc3ccc(F)cc3)CC2)n1	-9.6%
NC(=O)C1(N2CCCCC2)CCN(C(=O)Nc2ccc(F)cc2)CC1	22.7%
CCC1CCCCN1C(=O)CSc1nnc(-c2ccc(Cl)s2)o1 (configuration not stated)	8.7%
CC1CCN(CC(O)COc2ccc(F)cc2)CC1 (configuration not stated)	-6.9%
Cc1ccc(C)c(N2CCN(C(=O)c3cc4c(=O)n(Cc5cccnc5)ccc4nc3C)CC2)c1	8.5%
Cc1ccc2cc(CN(CC3CCCO3)S(=O)(=O)c3ccccc3)c3nnnn3c2c1 (configuration not stated)	-7.0%
Cc1noc(NS(=O)(=O)c2ccc(N/C=C\C(=O)c3ccc(F)cc3)cc2)c1C	-16.5%
CCOC(=O)c1c(NC(=O)C(=O)N/N=C/c2ccccc2O)sc2c1CCCCC2	-7.8%
Cc1cc(=O)c2c(O)c(O)ccc2o1	4.5%
CCCn1c2ccccc2c2cnn(CC(=O)NCCN(C)C)c(=O)c21	-2.2%

Six compounds out of the list, ordered by number of heavy atoms, smallest number first.
SMILES	VDR inhibitor
CC1CCN(CC(O)COc2ccc(F)cc2)CC1 (configuration not stated)	-6.9%
CCCn1c2ccccc2c2cnn(CC(=O)NCCN(C)C)c(=O)c21	-2.2%
Cc1noc(NS(=O)(=O)c2ccc(N/C=C\C(=O)c3ccc(F)cc3)cc2)c1C	-16.5%
CCOC(=O)c1c(NC(=O)C(=O)N/N=C/c2ccccc2O)sc2c1CCCCC2	-7.8%
Cc1ccc2cc(CN(CC3CCCO3)S(=O)(=O)c3ccccc3)c3nnnn3c2c1 (configuration not stated)	-7.0%
Cc1ccc(C)c(N2CCN(C(=O)c3cc4c(=O)n(Cc5cccnc5)ccc4nc3C)CC2)c1	8.5%

The list goes on:
SMILES	VDR inhibitor
CC(C)NC(=O)N1CCC2(CC1)CCN(C(=O)c1ccco1)CC2	-1.0%
C=CCn1c(SCC)nc(O)cc1=O	12.5%
COc1ccc(C(CNC(=O)c2ccc3c(c2)C(=O)N(CCC(C)C)C3=O)N2CCOCC2)cc1 (configuration not stated)	9.8%
CN1CCC2(CC1)CCN(C(=O)c1cc(C(F)(F)F)cc(C(F)(F)F)c1)CC2	-1.2%
Cc1ccc(CNC(=O)c2ccc(N3CCC4(CC3)CC(c3ccccc3)=NO4)c(NC(=O)c3ccc(Cl)c([N+](=O)[O-])c3)c2)cc1	-12.5%
O=C(CCN1C(=O)c2ccccc2Sc2ncccc21)Nc1ccc(F)cc1F	4.5%
O=C(Nc1ccccc1C(=O)O)c1ccc2c(c1)C(=O)N(c1cccc([N+](=O)[O-])c1)C2=O	-11.6%
C[C@@H]1CC=C[C@H]2[C@H]1C(=O)N(Cc1ccccc1)[C@H]2c1ccc(F)c(/C=C/c2ccccc2)c1	-3.7%
CC1CCc2c(sc(NC(=O)CCC(=O)O)c2C(=O)NC2CC2)C1 (configuration not stated)	56.2µM*
O=C(Nc1nc(-c2ccccc2)nc2ccccc12)c1ccc(F)cc1	-9.5%
COC(=O)[C@@H]1C[C@H]2CC[C@H](O)C[C@H]2N1Cc1ccc(-c2ccccc2)cc1	-5.7%
O=C(CSc1nc2ccccc2c(=O)n1-c1ccc(Cl)cc1)c1ccco1	-20.3%
COc1ccc(NC(=O)CSc2ccc3c(c2)OCCO3)cc1S(N)(=O)=O	-6.0%
CCOC(=O)c1nnc(-c2ccc(C)cc2)nc1Oc1ccccc1Cl	-27.4%
CN1CCN(C(=S)C(=O)Nc2ccccc2)CC1	-8.5%
Cc1cc(C)c2c(N)c(C(=O)c3ccccc3Cl)sc2n1	-0.3%
NCCCCN	7.1%&8.1%
CCc1cc(Cn2nc(-c3ccccc3)cc2C(=O)NCc2cccc(C(F)(F)F)c2)on1	-4.1%
COc1ccc(Cl)cc1NC(=O)c1cn(C2CCCC2)c(=O)c2c1c1ccccc1n2C	-1.6%
COc1ccc(C(=O)NCC(C)(c2ccccc2)c2ccccc2)cc1S(=O)(=O)N1CCOCC1	9.4%
Cn1cnc2c(=O)oc3ccc(S(=O)(=O)N4CCN(c5cccc(Cl)c5)CC4)cc3c21	19.9%
CCc1cccc(-n2nnc(-c3nsc(NC(=O)c4ccc(C)cc4)n3)c2C)c1	11.5%
Cc1nn(C)c(C)c1Nc1ccc(N2C(=O)C3CC=CCC3C2=O)cc1[N+](=O)[O-] (configuration not stated)	12.2%
C[C@H](O)CON1C(=O)c2ccccc2C1=O	9.5%
O=C(/C=C/c1ccccc1F)c1cccc([N+](=O)[O-])c1	12.6µM*
Cc1cc(N2CCN(C(=O)c3ccco3)CC2)n2nc(-c3cccc(F)c3)cc2n1	5.1%
COc1ccc2oc(C(=O)OCC(=O)N(C)C3CCS(=O)(=O)C3)c(C)c2c1 (configuration not stated)	-6.3%
Cc1ccccc1CCNC(=O)C1CCN(c2nc3ccccc3nc2C(F)(F)F)CC1	5.9%
CCCNC(=O)N1CCC(Cc2ccccc2)CC1	20.5%
COc1ccc(CCC(C)N2CCC(Oc3ccc(C(=O)N4CCCC4)cc3)CC2)cc1 (configuration not stated)	9.1%
COc1ccccc1OCC(=O)NCC1(N(C)C)CCCCC1	20.9%
O=C(O)Cn1c(=O)c2c(c3ccccc31)CCC2	7.9%
CCc1ccccc1NC(=O)c1cnc2scc(C)n2c1=O	-12.6%
Cc1ccc(C(C(=O)NC2CCCC2)N(Cc2ccc3c(c2)OCO3)C(=O)Cc2cccs2)cc1 (configuration not stated)	-7.1%
CC(C)CC(=O)Nc1c2c(nn1-c1ccc(F)cc1)CS(=O)C2 (configuration not stated)	-6.8%
Cc1ccc(-c2noc(CCC(=O)NCCN3CCN(Cc4ccccc4)CC3)n2)cc1	19.9%
O=C(CCCN1CCC(c2ccccc2)C1)c1ccc2c(c1)OCCO2 (configuration not stated)	10.3%
CCC(C)NC(=O)c1cc(OC)c(OC)c(OC)c1 (configuration not stated)	-24.3%
C=CCNC(=S)NNc1ncnc2sc3c(c12)CC(C)(C)OC3	3.6%
O=C(CNC(=O)c1ccccc1)OCC(=O)c1cccc2ccccc12	-0.3%
O=C(/C=C/c1c(F)cccc1Cl)Nc1nc2ccccc2[nH]1	-7.3%
Cc1c(C(=O)N2CCN(C3CCS(=O)(=O)C3)CC2)oc2ccc(Cl)cc12 (configuration not stated)	-4.8%
CCOC(=O)C1=C(N)Oc2cc(C)n(C)c(=O)c2C1c1ccncc1 (configuration not stated)	-4.8%
CN(CC(=O)NC1CC(C)(C)NC(C)(C)C1)S(=O)(=O)c1ccc(Br)cc1	-2.0%
COC(=O)[C@H]1[C@@H]2C[C@@H]3c4[nH]c5ccccc5c4CCN3C[C@H]2CC[C@H]1O	17.2%
COCCNc1nc2nonc2nc1N(C)Cc1cccc2cnccc12	-1.0%
COc1ccc(OC)c(N(C(=O)c2snc(C(N)=O)c2N)C(C(=O)NCC2CCCO2)c2ccc3ncccc3c2)c1 (configuration not stated)	-5.6%
CCOc1ccccc1/C=C/c1onc(C)c1S(=O)(=O)N1CCC(C(=O)NC(C)C)CC1	-9.6%
CC(C)N1C(=O)CCN(C=O)c2ccccc21	-7.0%
CC(=O)CCS(=O)(=O)c1ccc(C)c(C)c1	2.2%

(further entries)
SMILES	VDR inhibitor
COc1cc(/C=C(\C#N)c2nc3ccc(C)cc3[nH]2)c([N+](=O)[O-])cc1OC	-23.7%
CC(NC(=O)c1ccc2c(c1)sc1nc(-c3ccccc3)cn12)C12CC3CC(CC(C3)C1)C2 (configuration not stated)	6.1%
Cc1cc(=O)[nH]c2c1c(C)nn2-c1ccccc1	2.0%
CCOc1ccc(NC(=O)Cn2nc3c(cc2=O)CC(C)CC3)cc1 (configuration not stated)	6.3%
Cn1c(=O)cc(-c2ccccc2)c2ccccc21	-20.2%
COc1ccc(F)cc1-c1nc(N)nc(N)n1	-14.8%
CCOC(=O)C(C)(C)Oc1ccc(Cl)cc1	5.2%&-13.6%&0.0%
CCCCNC(=O)COC(=O)c1ccc(NS(=O)(=O)c2ccc3c(c2)OCCO3)cc1	17.2%
C=CCn1c(=NC(=O)c2cc(-c3cccs3)nc3ccccc23)sc2cc(S(N)(=O)=O)ccc21	4.9%
O=C(c1ccccc1)n1nc(-c2ccc(Cl)cc2)nc1NCc1ccco1	-6.4%
COc1ccc(O)c(/C=N/N2CCOCC2)c1	-8.7%
Cn1c(=O)oc2cc(S(=O)(=O)CCC(=O)N3CCN(c4ccccc4)CC3)ccc21	-15.1%&6.7%
CCC1CCc2sc(C(=O)N3CCCN(C)CC3)cc2C1 (configuration not stated)	5.9%
Cc1cc(NC(=O)NC(=O)c2ccccc2NC(=O)C(C)N)ccc1Oc1ncc(Br)cn1 (configuration not stated)	-7.8%
CC(=O)c1c(OC(=O)c2ccc(C)cc2)c2ccccc2n1C	-10.9%
COc1ccc(Cc2noc(CN3CCN(C4CCc5ccccc5C4)CC3)n2)cc1OC (configuration not stated)	-1.6%
Cc1ccc(CN2CCN(CCCc3ccccc3)CC2CCO)cc1 (configuration not stated)	-7.0%
CC(=O)Nc1ccc(NC(=O)C(C)OC(=O)c2ccc(-n3cnnn3)cc2)cc1 (configuration not stated)	-2.6%
Cc1ccc2c(CC(=O)Nc3ccc(S(=O)(=O)N4CCCCC4)cc3)coc2c1C	1.5%
Fc1ccc(Nc2ncnc3sc4c(c23)CCC4)cc1	7.5%
COC(=O)c1ccc(COc2ccccc2/C=N/Nc2cccc(C(=O)O)c2)cc1	-5.2%
Cc1ncoc1C(=O)N1CCCC(C(=O)c2ccc(-c3ccccc3)cc2)C1 (configuration not stated)	7.5%
CC(=O)c1ccc(OCC(O)CNCc2ccc3c(c2)OCO3)cc1 (configuration not stated)	-4.9%
Cc1cc(C)nc(SCc2nc3ccccc3n2C)n1	1.1%
COC(=O)c1ccc(-c2ccc(OC)c(C3C4C=CCC(C)C4C(=O)N3Cc3ccccc3)c2)cc1 (configuration not stated)	-7.9%
Cc1ccc(S(=O)(=O)N2CCCCC2)cc1NC(=O)Cn1ccc(C(F)(F)F)n1	-27.3%
Cc1ccc(SCc2c(C(=O)N/N=C/c3ccccc3)nnn2-c2nonc2N)cc1	-10.0%
NS(=O)(=O)c1ccc(O)c(NC(=O)c2ccc([N+](=O)[O-])cc2)c1	9.2%
CSC1=C(C#N)C(c2ccc(Cl)cc2)C2=C(CC(C)(C)CC2=O)N1 (configuration not stated)	-16.1%
COc1ccc(S(=O)(=O)N(C)c2ccc(C(=O)N3CCN(c4ccccc4)CC3)cc2)cc1OC	5.0%
COc1ccc(NC(=O)CSc2nnnn2C)cc1S(=O)(=O)N1CCCCC1	-4.7%
Cn1nccc1C(=O)Nc1nnc(C2CC2)s1	-14.0%
C/C(=N\NS(C)(=O)=O)c1ccc(C)cc1	1.0%
CCN1CCN(CCNC(=O)c2cc(Cl)c(NC(=O)C3=C(C)OCCS3)cc2OC)CC1	-18.0%
CC(NC(=O)CCC(=O)c1ccccc1)c1ccc(F)cc1 (configuration not stated)	11.2%
COc1ccc(NC(=O)CCSc2ccc(C)cc2)cc1S(=O)(=O)Nc1ccccc1Cl	6.2%
COc1cccc(/C=N/NC(=O)c2cnccn2)c1OC	12.1%
COc1ccc(OC)c(Nc2ncnc3sc(-c4ccccc4)cc23)c1	-2.5%
COc1ccc(Nc2nc(NN)nc(C)c2[N+](=O)[O-])cc1	-16.8%
CCc1ccc(NC(=O)CSc2nc(-c3ccccc3)c(C#N)c(=O)[nH]2)cc1	18.0%

Reformatted: results already given.
> COc1cc(/C=C(\C#N)c2nc3ccc(C)cc3[nH]2)c([N+](=O)[O-])cc1OC
  VDR inhibitor: -23.7%
> Cc1ccc(C)c(N2CCN(C(=O)c3cc4c(=O)n(Cc5cccnc5)ccc4nc3C)CC2)c1
  VDR inhibitor: 8.5%
> COc1ccc(CCC(C)N2CCC(Oc3ccc(C(=O)N4CCCC4)cc3)CC2)cc1 (configuration not stated)
  VDR inhibitor: 9.1%
> CCOC(=O)C1=C(N)Oc2cc(C)n(C)c(=O)c2C1c1ccncc1 (configuration not stated)
  VDR inhibitor: -4.8%

(continued)
SMILES	VDR inhibitor
O=C1NC[C@@H](Cc2cccc3ccccc23)N(CCc2cc(C(F)(F)F)cc(C(F)(F)F)c2)C1=O	12.9%
COc1ccc(NC(=O)Nc2cccc3c2O[C@@H](CN(C)CC2CCCCC2)[C@@H](C)CN([C@H](C)CO)C3=O)cc1	-3.4%
CSc1nc(C)cc(-n2cc(F)c(=O)[nH]c2=O)n1	9.5%
O=c1c2c3c(sc2n2c(=S)[nH]nc2n1-c1ccccc1)CCC3	-12.6%
CN(C(=O)c1cnccn1)c1nnc(-c2cnccn2)s1	-8.2%
COc1ccc(OC)c(CN2CCCC(CO)C2)c1 (configuration not stated)	-16.1%
CC1CN(C(=O)CCC(=O)NCc2ccc(F)cc2)c2ccccc2S1 (configuration not stated)	?
